Compound activity as filed in PubChem.
ClpP mod – qHTS Assay for Activators of ClpP; ATP-dependent Clp protease proteolytic subunit (Bacillus subtilis (strain 168)), P80244; purified B. subtilis ClpP, FRET peptide cleavage, 20 min; Potency, µM (doses to about 57.5 µM), without a hit: at the highest dose activity change, negative = active; hit rate 1.9% among 340,000; AID 651965, 2013; active = well fitted falling curve with a large enough effect; inconclusive = small, poorly fitted or top-dose-only effect; inactive = no such curve, though single readings can be large or run the other way; further: the source files actives as falling curves though it sought activators and does not explain the sign; nearly all actives have a fitted effect of over 65% in size; many hits overshoot -100%
Target sequence (P80244 whole entry, looked up): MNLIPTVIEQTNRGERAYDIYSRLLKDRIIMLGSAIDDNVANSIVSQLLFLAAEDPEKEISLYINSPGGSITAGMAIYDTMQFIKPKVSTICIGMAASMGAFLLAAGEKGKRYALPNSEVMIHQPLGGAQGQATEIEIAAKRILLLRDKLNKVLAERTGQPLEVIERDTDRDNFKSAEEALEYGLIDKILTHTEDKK
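Purified B. subtilis ClpP, 10 microg/mL final in Tris/HCl pH8 with KCl, BSA, glycerol and Tween-20, cleaved an Abz/nitrotyrosine-quenched decapeptide. Fluorescence (ex 320, em 430) was read at 0 and 20 min at room temperature. Delta was normalized to 5.8 microM ADEP and DMSO/no-enzyme controls.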
* hit, by the source's call; u = inconclusive. Potency means the concentration at half of the fitted maximal effect. Only part of the results is shown; count on the stated rates, not on these rows.

Start of the listing, in advance:
Structure	ClpP mod
COc1ccc(-c2cc3nc(C)c(CCC(=O)NCc4ccccc4Cl)c(C)n3n2)c(OC)c1	2.9%
O=S(=O)(Nc1ccc2nc(-c3ccc(F)cc3)oc2c1)c1ccccc1	-21%

The list itself (from the top)
Structure	ClpP mod
COc1ccc(-c2cc3nc(C)c(CCC(=O)NCc4ccccc4Cl)c(C)n3n2)c(OC)c1	2.9%
O=S(=O)(Nc1ccc2nc(-c3ccc(F)cc3)oc2c1)c1ccccc1	-21%
O=C(CSc1ccc2nnc(CCNS(=O)(=O)c3ccccc3)n2n1)Nc1ccccc1C(F)(F)F	u
COc1cc2c(cc1OC)C(COc1cc(C)cc(C)c1)N(C(=O)c1ccc(S(=O)(=O)N3CCCC3)cc1)CC2 (stereo unspecified)	-1.1%
Cc1ccc(NC(=O)C2CCN(S(=O)(=O)c3cccc4nsnc34)CC2)cc1F	3.6%
Cc1cc(C)cc(OC(C)C(=O)Nc2nonc2-c2ccc(Br)cc2)c1 (stereo unspecified)	-0.1%
Cc1ccc(NC(=O)C2CC(=O)N(c3ccc(OC(C)C)cc3)C2)cc1 (stereo unspecified)	1.1%
O=C1CCCc2cc(S(=O)(=O)NCC3CCC(C(=O)NCc4ccc(F)cc4)CC3)ccc2N1 (stereo unspecified)	-0.5%
CCCOc1ccccc1C(=O)Nc1nc2c(s1)CCCC2	30%
COc1ccc(S(=O)(=O)NCC(c2ccco2)S(=O)(=O)c2ccc(C)cc2)cc1C (stereo unspecified)	-0.1%
COc1ccccc1-c1noc(CCCC(=O)NCc2ccco2)n1	-1.5%
COc1cccc(OC(=O)CSc2nnc(-c3ccc4c(c3)OCO4)o2)c1	-4.4%
Cc1ccc(S(=O)(=O)N(C)Cc2nc(-c3ccccc3)oc2C)cc1	-4.3%
CCOc1ccc(S(=O)(=O)Nc2nc3ccccc3nc2Nc2ccc(OC)cc2)cc1	-5.1%
COc1ccc(OC)c(-c2csc(-c3c(N)c(C(=O)c4ccccc4)n4ccccc34)n2)c1	-3.1%
CCN(CC)C(=O)c1sc2c(c1C)c(=O)n(-c1ccccc1)c(=O)n2CC(=O)Nc1ccc(C)cc1C	-5.3%
CCCn1c(=O)c2sccc2n2c(CCCC(=O)Nc3ccccc3OCC)nnc12	-3.3%
Cc1noc(C)c1S(=O)(=O)NCCc1csc2nc(-c3ccc(F)cc3)nn12	0.8%
Cc1ccc(CNC(=O)CCSCc2cnn(-c3ccccc3)c2-n2cccc2)cc1	-3.9%
COc1ccc(-c2cc3nc(C)c(CCC(=O)N4CCN(c5ccc(F)cc5)CC4)c(C)n3n2)c(OC)c1	-13%
Cc1cc(Cl)ccc1NC(=O)CS(=O)(=O)c1cccc2nsnc12	-1.7%
COc1ccc(N2CCN(C(=O)c3nn(C)c4c3CSc3ccccc3-4)CC2)cc1	-6.9%
FC(F)(F)c1cccc(N2CCN(Cc3nnc(-c4ccccc4)o3)CC2)c1	0.0%
Cc1cc(F)ccc1NC(=O)c1csc2c1CCC(C)C2 (stereo unspecified)	1.3%
Cc1ccc(S(=O)(=O)c2cn(CC(=O)Nc3ccc4c(c3)OCO4)c3ccc(F)cc3c2=O)cc1	-1.1%

Four of the compounds above, with each value named.
> CCN(CC)C(=O)c1sc2c(c1C)c(=O)n(-c1ccccc1)c(=O)n2CC(=O)Nc1ccc(C)cc1C
  ClpP mod = -5.3%

> Cc1cc(F)ccc1NC(=O)c1csc2c1CCC(C)C2 (stereo unspecified)
  ClpP mod = 1.3%

> Cc1cc(C)cc(OC(C)C(=O)Nc2nonc2-c2ccc(Br)cc2)c1 (stereo unspecified)
  ClpP mod = -0.1%

> COc1ccc(-c2cc3nc(C)c(CCC(=O)N4CCN(c5ccc(F)cc5)CC4)c(C)n3n2)c(OC)c1
  ClpP mod = -13%

Other results:
Structure	ClpP mod
O=C(CC1N=C2c3ccccc3N=C(SCC(=O)Nc3ccccc3F)N2C1=O)NCc1cccs1 (stereo unspecified)	-22%
O=S(=O)(c1ccc2nc(Nc3ccc(F)cc3)ccc2c1)N1CCCC1	-28%
CCOc1ccccc1-n1nnc(S(=O)(=O)c2ccc(C)cc2)c1N	-7.6%
O=C1CN(C(=O)c2ccc(Cl)cc2Cl)C(c2ccc(F)cc2)c2cc(F)ccc2N1 (stereo unspecified)	0.1%
Cc1cc(C(=O)Nc2c(C)nn(Cc3ccc(F)cc3)c2C)no1	-1.5%
COc1ccc(OC)c(/C=C/C(=O)Nc2ccc(C(=O)OCCC(C)C)cc2)c1	4.2%
COc1ccc(C#Cc2c[nH]c(=O)c3cncnc23)cc1OC	-0.2%
COc1ccc(-c2cc(-c3ccc(F)cc3)nc3c2COc2ccccc2-3)cc1	4.1%
COc1ccccc1CNC(=O)c1nnn(CC(=O)Nc2c(C)cccc2C)c1N	-2.4%
Cc1ccc(S(=O)(=O)C(CNC(=O)C(=O)NCc2ccc(Cl)cc2)c2cccs2)cc1 (stereo unspecified)	-1.8%
Cc1cc(C)c2oc(-c3cccc(NC(=O)c4ccc(Br)o4)c3)nc2c1	u
CC(=O)N1CCC(N(Cc2ccco2)C(=O)Nc2cccc(C)c2)CC1	-3.5%
Cc1nc([N+](=O)[O-])cn1CC(O)c1ccc2c(c1)OCCCO2 (stereo unspecified)	1.1%
Cc1cc2nc(N(Cc3cccnc3)C(=O)c3ccc(Cl)s3)sc2cc1C	-2.2%
CCOC(=O)c1cccc(NC(=O)c2sc3nc[nH]c(=O)c3c2C)c1	-1.9%
Cc1ccccc1C(=O)Nc1nnc(SCc2cc(=O)n3ccccc3n2)s1	u
Cc1nn(CCC(=O)NC(C)C)c(=O)c2nn(-c3ccccc3)c(C)c12	-6.9%
O=C(Cn1ncc2c3ccccc3n(Cc3cccc(Cl)c3)c2c1=O)NCc1cccs1	7.4%
Cc1cc2n(n1)CCC(=O)N2Cc1ccc(C(=O)Nc2cccc(C(F)(F)F)c2)cc1	u
Cc1ccc(S(=O)(=O)n2nc(-c3ccc(Cl)cc3)nc2NCc2ccccc2)cc1	-0.5%
CCOC(=O)c1ccc(NC(=O)c2sc3ccccc3c2Cl)cc1	-30%
O=C(NC1CCCCC1)c1ccc2c(c1)N(Cc1ccc(Cl)cc1)C(=O)c1ccccc1S2=O (stereo unspecified)	-1.3%
Cc1cc(NC(=O)c2oc3c(c2C)-c2[nH]ncc2CC3)ccc1Br	u
CCOC(=O)c1c(S(=O)(=O)N2CCC(C(=O)NCc3cccc(OC)c3)CC2)c(C)n(C)c1C	-0.5%
COc1ccc(N2C(=O)Cc3cc(OC)c(OC)cc3C2c2ccc(F)cc2)cc1 (stereo unspecified)	-1.0%
CCc1nn(-c2ccccc2)c2nc(-c3cccc(OC)c3)c3cc(OC)c(OC)cc3c12	3.9%
CCNC(=O)C1CCCN(c2ncnc3onc(C)c23)C1 (stereo unspecified)	0.3%
COc1cccc(NC(=O)c2oc3ccccc3c2NC(=O)c2ccc(C(F)(F)F)cc2)c1	u
COc1ccc(CN2C(=O)C(NC(=O)c3ccccc3OC)(C(F)(F)F)N=C2c2ccccc2)cc1 (stereo unspecified)	-2.1%
Cc1oc(-c2cccc(Br)c2)nc1CSc1nc2ncccc2[nH]1	-2.2%
CCOC(=O)c1ccc(N2C(=O)c3[nH]nc(-c4ccc(C)cc4)c3C2c2ccc(O)cc2)cc1 (stereo unspecified)	8.0%
COC(=O)c1ccc(NC(=O)c2c(-c3ccccc3)c(-c3ccccc3)nn(C)c2=O)cc1	-0.5%
CCOc1ccccc1C1C(C(=O)Nc2ccccc2)=C(C)Nc2c(C(=O)Nc3ccc(F)cc3)cnn21 (stereo unspecified)	u
CC1=C(C(=O)Nc2cccc(C(F)(F)F)c2)C(c2ccccn2)n2ncnc2N1 (stereo unspecified)	-3.3%
CCc1cccc(NC(=O)c2cc(S(=O)(=O)N3CCCCCC3)cn2C)c1	-15%
COc1cccc(-c2ccc3c(N)c(C(=O)Nc4cc(F)ccc4F)sc3n2)c1	1.9%
Cc1ccc2nc(-c3ccc(C)c(NC(=O)Cc4ccccc4)c3)oc2c1	u
O=C(NCc1ccccc1Cl)c1cc(-c2ccccc2)n[nH]1	3.1%
O=C1CC(c2ccc(F)cc2F)c2cc3c(cc2N1)OCO3 (stereo unspecified)	-3.5%
COC(=O)c1ccc(NC(=O)CSc2ccc(-c3sc(-c4ccccc4)nc3C)nn2)cc1	3.5%
Cc1ccc(NC(=O)C(=O)NCC(c2cccnc2)N2CCOCC2)cc1 (stereo unspecified)	0.6%
COc1cc(-c2cc3n(C)c(C)c(CCC(=O)O)c(=O)n3n2)cc(OC)c1OC	-10%
COc1ccc(-n2cc(C(=O)N(CCN(C)C)Cc3ccccc3)c3ccccc3c2=O)cc1	-18%
Cc1ccc(SC[C@H](C)CN2CC[C@H](O)CCC2=O)cc1	1.3%
COc1cccc(CSc2nc3ccncc3n2CC(=O)Nc2ccc(OC)c(OC)c2OC)c1	-2.2%
CCOc1ccc(-n2ccnc2SCC(=O)Nc2cc(C)ccc2C)cc1	-0.9%
COc1ccccc1NC(=O)c1c(-c2ccc(C)cc2)nnc2ccccc12	-0.7%
C(=C\c1ccnc2ccccc12)/c1ccc(N2CCN(c3ccc(/C=C/c4ccnc5ccccc45)cc3)CC2)cc1	-2.3%
COc1ccc(C(=O)Nc2nc3c(s2)CCc2cc(OC)ccc2-3)cc1	u
COc1ccc(-c2noc(CSc3nnc(C)n3-c3ccc(C)c(C)c3)n2)c(OC)c1	-1.8%

The list continues:
Structure	ClpP mod
Cc1ccc(CN(Cc2ccco2)C(=O)c2ccccc2Br)o1	8.5%
COc1cccc(N2C(=O)C(CC(=O)Nc3ccc(F)cc3)N(CCC3=CCCCC3)C2=O)c1 (stereo unspecified)	-3.6%
COc1ccc(NC(=O)c2cc3c(=O)n(Cc4ccco4)ccc3nc2C)c(OC)c1	-13%
Cc1cccc(-n2c(=O)c3c(c4cc(C)ccc4n3C)n(CC(=O)NCCC3=CCCCC3)c2=O)c1	u
CNC(=O)c1c(NC(=O)/C=C/c2ccccc2)sc2c1CCC2	0.2%
COc1ccc(-c2nn(C)c3sc(C(=O)N4CCN(c5ccccc5F)CC4)cc23)cc1OC	-5.4%
CCC1=C(c2ccc(C)cc2)S(=O)(=O)N=C1N1CCC(C(=O)NCc2ccc(C)cc2)CC1	-1.4%
Cc1ccccc1NS(=O)(=O)c1ccc2[nH]c3c(c2c1)CCCCC3	-19%
O=c1oc2cc(O)ccc2cc1-c1nnc(Nc2ccccc2F)s1	-7.2%
COC(=O)c1ccccc1NC(=O)c1ccc2nc(Cc3ccccc3)oc2c1	-5.8%
CC(=O)c1cccc(NC(=O)C2CCN(S(=O)(=O)c3ccc4[nH]c(=O)ccc4c3)CC2)c1	-23%
Cc1ccc(C)c(Nc2nc(NCc3ccco3)nc3nccnc23)c1	0.6%
O=S(=O)(c1ccccc1)c1nc(-c2ccc(Cl)cc2Cl)oc1N1CCCCC1	u
Cn1nc(C(=O)NCc2cccc(Cl)c2)c2c1-c1ccccc1SC2	-2.8%
Cc1cccc(N2C(=O)C(CC(=O)Nc3ccc(Cl)cc3)N(Cc3ccco3)C2=O)c1 (stereo unspecified)	0.4%
CC(C)CC(=O)NCc1nc2cccnc2n1Cc1ccccc1	-1.7%
COc1cccc(CN2C(=O)N(c3ccc(C)cc3)C(=O)C2CC(=O)Nc2cc(OC)cc(OC)c2)c1 (stereo unspecified)	-3.1%
CCCCOc1ccc(C(=O)Nc2ccc3c(c2)CCCN3S(=O)(=O)c2ccc(C)cc2)cc1	-9.8%
CCCCC(=O)OC1=CN(Cc2ccccc2)S(=O)(=O)c2ccccc21	0.7%
Cc1ccc(NC(=O)Cn2c(=O)n(Cc3ccco3)c(=O)c3ccc(C(=O)NC4CCCC4)cc32)c(C)c1	-1.4%
CCCCC(=O)NCc1nc2cccnc2n1Cc1ccc(OC)cc1	1.5%
Cc1ccc(C)c(NC(=O)C2CCN(c3cc(C)nc4c(-c5ccc(Cl)cc5)c(C)nn34)CC2)c1	3.9%
CC(=O)c1c(C)oc2ccc(N(C(=O)c3ccncc3)S(=O)(=O)c3ccc(F)cc3C)cc12	-2.6%
Cc1cccc(N2C(=O)N(Cc3ccc(C(C)(C)C)cc3)c3ccccc3S2(=O)=O)c1	-1.7%
CCNc1nc(NCC)nc(-n2cc(C(=O)c3cc(Cl)ccc3O)cn2)n1	0.0%
Cc1cccc(NC(=O)CSc2nc(-c3cccc(C)c3)nc3c2Cc2c(CO)cnc(C)c2O3)c1	2.1%
CCc1ccc(OCCSc2nc(-c3cccc(C)c3)nc3cc(=O)[nH]n23)cc1	-5.5%
CCc1ccccc1NC(=O)c1cc(S(=O)(=O)N(CC)c2ccccc2)ccc1F	-1.7%
CC(CNC(=O)Cn1c(-c2cccs2)cc2cc(Cl)ccc21)c1ccccc1 (stereo unspecified)	25µM*
CCOc1cc(C2CC(=O)Nc3c2c(C)nn3-c2nc(C)cc(C)n2)ccc1O (stereo unspecified)	0.2%
Cc1ccc(NC(=O)c2nc(S(C)(=O)=O)ncc2N(Cc2ccc(C(C)(C)C)cc2)Cc2ccco2)cc1C	-0.3%
